Bioassay records (PubChem BioAssay)
AID923 – qHTS Assay for Allosteric/Competitive Inhibitors of Caspase-1: Spectroscopic Profiling in AFC Spectral Region; AID 923, 2007; 75,000 tested, 1.1% active; Potency, µM (highest dose often 57.5 µM), without a hit: top-dose fluorescence increase, most hits filed as activators; compound fluorescence, AFC spectral region (405/520 nm); almost no hit is shown here; active means well fitted activation curve with a large enough effect; inconclusive means small, poorly fitted or top-dose-only effect;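 further: potency means the concentration at half of the fitted maximal effect; 0% is about no effect; scaled to a free AFC standard on each plate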
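Compound autofluorescence profiled at 405 nm ex/520 nm em during kinetic caspase 1 run (50 nM enzyme, 5 uM Ac-WEHD-AFC, HEPES pH 7.5, 10 mM DTT). Titration up to 57 uM; baseline from regression intercept, normalized to AFC standard curve.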
TSHR agonist – TSH receptor (human) agonism; Potency, µM (doses to about 57.1 µM), for inactives: top-dose activation, usual class: activators; 73,000 tested, 0.48% active; P16473; HEK293-CNG-TSHR cells (CNG channel as cAMP sensor), membrane potential dye, cAMP; active = well fitted activation curve of enough size with the parental cells flat; inconclusive = any curve in the parental cells; inactive = parental cells flat and receptor cells flat or falling; further: potency means the concentration at half of the fitted maximal effect; % of control where 0% means no effect; weak receptor curves with flat parental cells got no call and are not listed
Target sequence (P16473 whole entry, looked up): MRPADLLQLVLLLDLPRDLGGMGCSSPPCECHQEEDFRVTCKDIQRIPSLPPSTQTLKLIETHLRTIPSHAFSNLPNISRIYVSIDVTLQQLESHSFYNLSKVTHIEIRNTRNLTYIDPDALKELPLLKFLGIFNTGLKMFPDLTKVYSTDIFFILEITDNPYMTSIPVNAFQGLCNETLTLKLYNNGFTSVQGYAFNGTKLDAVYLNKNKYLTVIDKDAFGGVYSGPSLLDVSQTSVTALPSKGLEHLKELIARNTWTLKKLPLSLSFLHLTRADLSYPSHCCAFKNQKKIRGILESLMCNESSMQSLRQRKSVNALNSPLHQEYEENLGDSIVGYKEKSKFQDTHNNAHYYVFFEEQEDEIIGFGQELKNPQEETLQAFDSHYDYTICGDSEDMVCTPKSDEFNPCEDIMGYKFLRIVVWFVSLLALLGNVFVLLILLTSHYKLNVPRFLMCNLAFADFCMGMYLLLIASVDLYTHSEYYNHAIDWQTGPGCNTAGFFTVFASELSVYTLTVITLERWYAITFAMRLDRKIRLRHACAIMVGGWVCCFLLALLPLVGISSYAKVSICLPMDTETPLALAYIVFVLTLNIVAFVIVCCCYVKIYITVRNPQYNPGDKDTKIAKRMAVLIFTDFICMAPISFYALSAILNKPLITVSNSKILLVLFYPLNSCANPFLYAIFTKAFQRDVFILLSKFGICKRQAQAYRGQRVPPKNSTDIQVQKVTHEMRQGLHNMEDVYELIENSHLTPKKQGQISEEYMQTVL
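HEK 293 cells stably expressing TSHR and a cAMP-gated CNG channel; parental CNG-only cells as counterscreen. Cells preloaded 60 min with membrane potential dye plus 100 uM RO 20-1724, then compound 30 min; fluorescence read at 590 nm.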
Resorufin autofl – resorufin region autofluorescence. Compound fluorescence, resorufin region 547/598 nm, buffer; stronger effect = higher value. max dye-equivalent concentration, M. 59,000 tested, 0.04% active; active = above 10 nM dye equivalent; inconclusive = 1 to 10 nM; inactive = 1 nM or less; a few of its hits are not listed in these tables; further: highest value over a series up to 38 µM
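Tris 100 mM pH 8.0; compound added, 15 min RT; CCD imager read, ex 547 nm/em 598 nm; signal normalized to resorufin standard curve (six concentrations per plate) as dye-equivalent concentration.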
A488 fluor – A488 region autofluorescence; max dye equivalency, M; 59,000 tested, 0.1% active; compound autofluorescence, A488 spectral region, dye equivalency; stronger effect = higher value; active = above 10 nM dye equivalent; inconclusive = 1 to 10 nM; inactive = 1 nM or less; about half of its hits are not listed in these tables;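 further: highest value over a series up to 38 µM; compound alone in buffer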
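Readout is A488 dye-equivalent concentration, calibrated by a per-plate six-point Alexa 488 series. Compounds in 100 mM Tris buffer pH 8.0 were incubated 15 min at room temperature. Plates were imaged using 480 nm excitation/540 nm emission filters.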
A647 autofl – compound autofluorescence in A647 spectral region; Compound fluorescence, A647 channel (570/671 nm), Tris buffer; max dye-equivalent concentration, M; 59,000 tested, under 10 active; AID 592; active means above 1 µM dye equivalent; inconclusive means 0.1 to 1 µM; inactive means 0.1 µM or less;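 further: values scaled relative to a standard on each plate; highest value over a series up to 38 µM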
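Buffer was dispensed, compounds and Alexa 647 standards were pin-transferred, and plates sat 15 min at room temperature. Intensity at 570/671 nm was then converted to dye-equivalent concentration using the plate's A647 standard curve.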
* marks the source's active call; other numbers are inactive results; [ ] = dose if it differs, or a comment.

For CC(C)(C)C1CCC2(CC1)C(C#N)=C(SCC(=O)NC1CCCCC1)NC(=O)C2C#N (stereo not drawn) the results were AID923 0.7%, Resorufin autofl inactive, A488 fluor inactive and A647 autofl 1.6e-09.
For CN(C)S(=O)(=O)c1nc(Cl)c2[nH]cnc2n1 the results were AID923 0.3%[11.5 µM], TSHR agonist 5%[11.4 µM], Resorufin autofl inactive, A488 fluor inactive and A647 autofl 1.5e-08.
Screening Cc1nc(NC(=O)C23CCC(C)(C(=O)O2)C3(C)C)sc1C (stereo not drawn) returned AID923 1.4%, TSHR agonist 8%, Resorufin autofl inactive, A488 fluor inactive and A647 autofl 4e-09.
For Cn1c(SCC(=O)Nc2ccc(F)cc2F)nnc1-c1cccnc1 the results were AID923 1.0% and TSHR agonist -2%.
`Cc1ccc(C)c(S(=O)(=O)N2CCN(CC(=O)Nc3cc(C)on3)CC2)c1` gave AID923 0.4%, TSHR agonist 1%, Resorufin autofl inactive, A488 fluor inactive and A647 autofl 1.4e-08.
O=C(COC(=O)CCc1ccc(S(=O)(=O)N2CCOCC2)cc1)Nc1ccc(Cl)cn1 was read as AID923 4.1%, TSHR agonist 10%, Resorufin autofl inactive, A488 fluor inactive and A647 autofl 1e-09.
`CCn1cc(C(=O)NCc2ccco2)c(=O)c2cc(F)c(N3CCN(C(=O)c4ccco4)CC3)cc21` gave Resorufin autofl inactive, A488 fluor inactive and A647 autofl 3.9e-09.
`Cc1ccc(C)c(N2CCN(C(=O)c3cc4sccc4n3C)CC2)c1` gave AID923 6.2%, TSHR agonist -1%, Resorufin autofl inactive, A488 fluor inactive and A647 autofl 2.6e-09.
Cc1ccc(-n2c(CSc3nc(C)cc(C)n3)nnc2SCC(=O)Nc2nccs2)cc1 was read as AID923 0.3%, TSHR agonist 0%, Resorufin autofl inactive, A488 fluor inactive and A647 autofl 1e-09.
Screening O=c1c2ccccc2[nH]c(=S)n1CCN1CCC(=C(c2ccc(F)cc2)c2ccc(F)cc2)CC1 returned Resorufin autofl inactive, A488 fluor inactive and A647 autofl 2.6e-09.
`Cn1c(=O)c2c(O)cc(=O)n(-c3ccccc3)c2n(C)c1=O` gave AID923 0.1%, TSHR agonist -2%[11.4 µM], Resorufin autofl inactive, A488 fluor inactive and A647 autofl 3.1e-08.
Screening Cc1cc2ncn(C(=O)c3ccc4c(c3)OCO4)c2cc1C returned AID923 0.8%, TSHR agonist 2%, Resorufin autofl inactive, A488 fluor inactive and A647 autofl 2.9e-08.

Random excerpt: 4 records from the list.
Screening O=c1c2ccccc2[nH]c(=S)n1CCN1CCC(=C(c2ccc(F)cc2)c2ccc(F)cc2)CC1 returned Resorufin autofl inactive, A488 fluor inactive and A647 autofl 2.6e-09.
Screening Cc1nc(NC(=O)C23CCC(C)(C(=O)O2)C3(C)C)sc1C (stereo not drawn) returned AID923 1.4%, TSHR agonist 8%, Resorufin autofl inactive, A488 fluor inactive and A647 autofl 4e-09.
O=C(COC(=O)CCc1ccc(S(=O)(=O)N2CCOCC2)cc1)Nc1ccc(Cl)cn1 was read as AID923 4.1%, TSHR agonist 10%, Resorufin autofl inactive, A488 fluor inactive and A647 autofl 1e-09.
For CC(C)(C)C1CCC2(CC1)C(C#N)=C(SCC(=O)NC1CCCCC1)NC(=O)C2C#N (stereo not drawn) the results were AID923 0.7%, Resorufin autofl inactive, A488 fluor inactive and A647 autofl 1.6e-09.

(list continues)
For CN1CCN(C(=O)CCn2nc(-c3ccccc3)c3ccccc3c2=O)CC1 the results were AID923 -0.6%, Resorufin autofl inactive, A488 fluor inactive and A647 autofl 6.5e-09.
For COC(=O)c1sc(NC(=O)CSc2nc3cccnc3n2C2CCCCC2)nc1C the results were AID923 0.8%, TSHR agonist 7%, Resorufin autofl inactive, A488 fluor inactive and A647 autofl 6.7e-09.
`O=C(CSc1nnnn1C1CCCCC1)Nc1ccc2c(c1)OCO2` gave AID923 -2.3%, TSHR agonist 2%, Resorufin autofl inactive, A488 fluor inactive and A647 autofl 1.5e-08.
Screening Cc1ccc(C)n1-c1ccc(C(=O)NCC2CCCO2)cc1 (stereo not drawn) returned AID923 1.0%, TSHR agonist -5%, Resorufin autofl inactive, A488 fluor inactive and A647 autofl 4.6e-09.
For Cc1ccc(S(=O)(=O)N2CCOCC2)cc1C(=O)NC1CCCCC1 the results were AID923 0.3%, TSHR agonist inconclusive, Resorufin autofl inactive, A488 fluor inactive and A647 autofl 1e-09.
Screening COCC(=O)N1CCC2(CCN(Cc3ccccc3OC)CC2)CC1 returned AID923 1.2%, TSHR agonist 0%, Resorufin autofl inactive, A488 fluor inactive and A647 autofl 1e-09.
`CC(=O)c1cccc(NC(=O)CN2C(=O)COc3ccc(Cl)cc32)c1` gave AID923 -1.4%, TSHR agonist 19%, Resorufin autofl inactive, A488 fluor inactive and A647 autofl 1e-09.
For CCC(C(=O)NCc1ccco1)n1nc(-c2ccc(OC)cc2)ccc1=O (stereo not drawn) the results were AID923 0.8%, TSHR agonist inconclusive, Resorufin autofl inactive, A488 fluor inactive and A647 autofl 1e-09.
For CC(C)(C)c1ccc(-c2cc(N)n[nH]2)cc1 the results were AID923 0.3% and TSHR agonist 4%.
`C1CSC2(N1)C1CC3CC(C1)CC2C3` (stereo not drawn) gave AID923 0.4%, TSHR agonist 7%[11.4 µM], Resorufin autofl inactive, A488 fluor inactive and A647 autofl 1e-09.
`CCOc1ccc(C2/C(=C(/O)c3ccc(OC)cc3)C(=O)C(=O)N2c2cc(C)on2)cc1OC` (stereo not drawn) gave Resorufin autofl inactive, A488 fluor inactive and A647 autofl 1.9e-09.
Fc1ccc(C2CC(c3ccccc3)n3ncnc3N2)cc1 (stereo not drawn) was read as AID923 -1.5%, TSHR agonist 9%, Resorufin autofl inactive, A488 fluor inactive and A647 autofl 4.5e-09.
Screening Clc1ccc(OCc2nnc(SCc3nc4ccccc4[nH]3)n2Cc2ccco2)cc1 returned AID923 2.9%, TSHR agonist 22%, Resorufin autofl inactive, A488 fluor inactive and A647 autofl 2e-08.
For Cc1nc2nc(COc3ccccc3)[nH]n2c(=O)c1Cl the results were AID923 0.6%, TSHR agonist 2%, Resorufin autofl inactive, A488 fluor inactive and A647 autofl 1.1e-08.
Screening CCc1nc2ccccc2n1Cc1cc(=O)n2cc(C)ccc2n1 returned AID923 0.2%, TSHR agonist inconclusive, Resorufin autofl inactive, A488 fluor inactive and A647 autofl 3.7e-09.
`Fc1ccc(-c2nc3n(c2-c2ccncc2)CCS3)cc1` gave AID923 -0.6% and TSHR agonist 27%.
`O=C(Cc1coc2ccc3ccccc3c12)N1CCN(c2ncccn2)CC1` gave AID923 1.0%, TSHR agonist inconclusive, Resorufin autofl inactive, A488 fluor inactive and A647 autofl 1e-09.
Screening CCN(CC)C(=O)COc1ccc(-c2ccccc2)cc1 returned AID923 0.8% and TSHR agonist 16%.
COCc1cc(C)n(CC(=O)Nc2ccccc2OC)c(=O)c1C#N was read as AID923 0.3%, TSHR agonist 1%, Resorufin autofl inactive, A488 fluor inactive and A647 autofl 2.6e-08.
`Clc1ccccc1-c1cc(NCc2ccccc2)ncn1` gave AID923 1.2%, TSHR agonist inconclusive, Resorufin autofl inactive, A488 fluor inactive and A647 autofl 2.1e-09.
Screening Cc1cc(=O)oc(C)c1C(=O)Nc1ccc2nsnc2c1 returned Resorufin autofl inactive, A488 fluor inactive and A647 autofl 6.1e-09.
COc1ccc(C(c2nnnn2CC2CCCO2)N2CCN(c3ccccc3)CC2)cc1 (stereo not drawn) was read as AID923 -1.5%, TSHR agonist -3%, Resorufin autofl inactive, A488 fluor inactive and A647 autofl 9e-09.
Screening Cc1cc(C(=O)Nc2sc3c(c2C#N)CCCC3)no1 returned AID923 -0.6%, TSHR agonist -2%, Resorufin autofl inactive, A488 fluor inactive and A647 autofl 1.2e-09.
Screening CC(C)(C)NC(=O)C(c1ccco1)N(C(=O)Cn1nnc(-c2ccc(F)cc2)n1)c1cccc(F)c1 (stereo not drawn) returned AID923 -0.3%, TSHR agonist inconclusive, Resorufin autofl inactive, A488 fluor inactive and A647 autofl 9.5e-09.
`CN(C(=O)c1ccno1)c1nnc(-c2cnccn2)s1` gave AID923 2.1%, TSHR agonist 2%, Resorufin autofl inactive, A488 fluor inactive and A647 autofl 4.5e-09.
`Cc1ccc2c(CN3CCN(S(=O)(=O)c4ccc5c(c4)OCCO5)CC3)cc(=O)oc2c1C` gave AID923 -1.0%, Resorufin autofl inactive, A488 fluor inactive and A647 autofl 2.5e-08.
Screening O=C(CCCc1ccccc1)NCc1cccnc1 returned AID923 3.3% and TSHR agonist -8%.
Screening O=c1[nH]c(N2CCCCC2)nc2c1CCCC2 returned AID923 2.8%, TSHR agonist -7%, Resorufin autofl inactive, A488 fluor inactive and A647 autofl 7.4e-09.
`COc1cc(NC(=O)C2CCCO2)c(OC)cc1NC(=O)c1ccccc1` (stereo not drawn) gave AID923 -2.1%, TSHR agonist 22%, Resorufin autofl inactive, A488 fluor inactive and A647 autofl 9e-09.
Screening CCC(=O)c1ccc(OCC(=O)O)cc1 returned AID923 0.5%, TSHR agonist 1%, Resorufin autofl inactive, A488 fluor inactive and A647 autofl 1e-09.
Screening CCc1cccc(NS(=O)(=O)c2ccc3c(c2)oc(=O)n3C)c1 returned AID923 -1.2%, TSHR agonist -12%, Resorufin autofl inactive, A488 fluor inactive and A647 autofl 2.5e-08.
Screening CCOCCc1nnc(NC(=O)CN2C(=O)c3ccccc3C2=O)s1 returned AID923 0.5%, TSHR agonist 9%, Resorufin autofl inactive, A488 fluor inactive and A647 autofl 1.2e-08.
`O=S(=O)(NCC1CCCO1)c1ccc(Br)s1` (stereo not drawn) gave AID923 -0.9%, TSHR agonist 4%, Resorufin autofl inactive, A488 fluor inactive and A647 autofl 2.7e-08.
Screening CCc1nc2sc3ccccc3c(=O)c2c(=O)n1Cc1ccco1 returned AID923 0.2%, TSHR agonist 25%, Resorufin autofl inactive, A488 fluor inactive and A647 autofl 1e-09.
`COc1ccc(N2CCCn3c2nc2c3c(=O)n(CCN3CCOCC3)c(=O)n2C)cc1` gave AID923 1.1%, TSHR agonist -35%[inhibitor], Resorufin autofl inactive, A488 fluor inactive and A647 autofl 3.1e-09.
`O=C(NCCN1CCOCC1)c1ccccc1Oc1ccccc1` gave AID923 -0.4%, TSHR agonist 11%, Resorufin autofl inactive, A488 fluor inactive and A647 autofl 9.1e-08.
`CC(C)(C)n1ncc2c(=O)n(CC(=O)NCc3ccco3)cnc21` gave AID923 0.4%, TSHR agonist 1%, Resorufin autofl inactive, A488 fluor inactive and A647 autofl 1.1e-08.
Screening CCCn1c(=O)c2ccccc2n2c(SCC(=O)Nc3cc(C)on3)nnc12 returned AID923 -0.7%, TSHR agonist 12%, Resorufin autofl inactive, A488 fluor inactive and A647 autofl 1e-09.
For Cc1ccc2nc(SCc3nnc(-c4cccs4)o3)[nH]c2c1 the results were AID923 2.2%, TSHR agonist 8%, Resorufin autofl inactive, A488 fluor inactive and A647 autofl 1.3e-09.
COC1(OC)N=C(N)C2(C#N)C(c3ccc4c(c3)OCO4)C12C#N (stereo not drawn) was read as AID923 8.4%, TSHR agonist 7%, Resorufin autofl inactive, A488 fluor inactive and A647 autofl 2.6e-08.
CCCCOc1ccc(NC(=O)c2cnc(C)cn2)cc1 was read as AID923 1.7%, TSHR agonist 10%, Resorufin autofl inactive, A488 fluor inactive and A647 autofl 4.7e-08.
CCN1C(=O)c2cccc3c(NC(=O)C4CCCCC4)ccc1c23 was read as AID923 4.7%, Resorufin autofl inactive, A488 fluor inactive and A647 autofl 1.7e-09.
For O=C(O)Cn1c(-c2ccccc2)nc2ccccc21 the results were AID923 0.3%, TSHR agonist -1%[11.4 µM], Resorufin autofl inactive, A488 fluor inactive and A647 autofl 1e-09.
Screening O=C(Nc1cc(C(F)(F)F)ccc1Cl)c1cc(C2CC2)on1 returned AID923 -1.5%, TSHR agonist 2%, Resorufin autofl inactive, A488 fluor inactive and A647 autofl 7.4e-09.

The list is partial. The share of hits here may be higher or lower than overall.
